eIF4H FP inh: human eIF4H binding inhibitors, primary screen, translation initiation inhibitor project, biochemical, uHTS, fluorescence polarization | Eukaryotic translation initiation factor 4H (Homo sapiens), Q15056 | eIF4H fluorescence polarization binding assay | inhibition, % at 35 µM | hit rate 0.94% among 290,000 | AID 2012, 2009;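 active = 50% or more with normal probe brightness, or confirmed in later tests; inconclusive = above 50% with abnormal brightness, or retests that disagree; inactive = below 50% or failed in later tests; about a fifth of its hits are not listed in these tables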;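 also: calls also rest on retests at 20 µM and on dose response follow-up; 0% = protein and probe with vehicle and 100% = probe without protein; strong numbers were not always called active; many hits fall short of the cut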
PABP polyA inh: PABP poly(A) RNA binding inhibitors, primary screen, biochemical, fluorescence polarization, uHTS; inhibition, % at 35 µM; hit rate 1% among 290,000; AID 2014, 2009; Polyadenylate-binding protein 1 (Homo sapiens), P11940;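 active = 50% or more with normal probe brightness, or confirmed in later tests; inconclusive = above 50% with abnormal brightness, or retests that disagree; inactive = below 50% or failed in later tests; about a fifth of its hits are not listed in these tables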;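 also: calls also rest on retests at 20 µM and on dose response follow-up; controls were probe without protein and protein plus probe with vehicle; some compounds called inactive have numbers as strong as hits; many hits fall short of the cut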
Target sequence (P11940 whole entry, looked up): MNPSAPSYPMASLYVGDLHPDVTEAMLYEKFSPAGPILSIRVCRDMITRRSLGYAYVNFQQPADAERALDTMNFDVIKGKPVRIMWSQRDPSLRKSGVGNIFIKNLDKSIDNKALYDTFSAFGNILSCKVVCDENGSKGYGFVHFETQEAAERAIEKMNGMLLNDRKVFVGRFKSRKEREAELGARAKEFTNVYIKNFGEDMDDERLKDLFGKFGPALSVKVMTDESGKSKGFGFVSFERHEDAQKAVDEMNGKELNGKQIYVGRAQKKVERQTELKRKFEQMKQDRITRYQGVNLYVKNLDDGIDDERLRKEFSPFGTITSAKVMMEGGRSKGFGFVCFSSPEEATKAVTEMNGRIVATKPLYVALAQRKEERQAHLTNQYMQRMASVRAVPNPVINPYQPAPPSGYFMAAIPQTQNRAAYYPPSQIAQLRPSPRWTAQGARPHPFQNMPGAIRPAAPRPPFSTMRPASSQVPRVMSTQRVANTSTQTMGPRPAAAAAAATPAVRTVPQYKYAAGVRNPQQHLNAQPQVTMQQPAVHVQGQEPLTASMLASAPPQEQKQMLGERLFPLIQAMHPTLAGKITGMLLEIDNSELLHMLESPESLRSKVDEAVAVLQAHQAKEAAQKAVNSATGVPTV
Yeast UUG start: modulators of yeast start codon fidelity, primary screen, whole organism, S. cerevisiae, single point, plate reader. S. cerevisiae UUG-firefly luciferase reporter, luminescence/redox ratio. activity score, % at 18.7 µM. hit rate 0.13% among 350,000;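 active = replicate mean at a twofold rise or more, about +100% in these data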;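 also: firefly luciferase made from a UUG start codon reports start codon fidelity; reporter light over untreated wells divided by growth signal over untreated wells; some hits fall short of that in this replicate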
Rce1 inh: yeast Rce1p protease inhibitors, primary screen, biochemical, fluorescence, cell-free homogeneous; CAAX prenyl protease 2 (Saccharomyces cerevisiae (strain ATCC 204508 / S288c)), Q03530; yeast membranes, quenched prenylated peptide cleavage fluorescence; calls only; hit rate 0.27% among 290,000; AID 2563, 2010;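 active = fall in fluorescence gain of 50% or more versus controls, with final raw signal at or below 3038400; inconclusive = same 50% fall but final raw signal above 3038400; inactive = fall in fluorescence gain under 50%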;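 also: plate controls were neutral control wells for no effect and wells lacking membranes for full effect; tested at 10 µM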
Target sequence (Q03530 whole entry, looked up): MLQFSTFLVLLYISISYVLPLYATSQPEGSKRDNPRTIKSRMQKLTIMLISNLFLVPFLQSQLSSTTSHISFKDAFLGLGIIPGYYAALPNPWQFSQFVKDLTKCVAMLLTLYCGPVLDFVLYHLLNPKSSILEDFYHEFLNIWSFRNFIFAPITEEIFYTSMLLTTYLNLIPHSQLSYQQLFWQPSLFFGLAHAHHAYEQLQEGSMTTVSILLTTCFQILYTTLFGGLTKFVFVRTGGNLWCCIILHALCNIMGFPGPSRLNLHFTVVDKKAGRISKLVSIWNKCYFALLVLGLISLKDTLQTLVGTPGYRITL
CSC inhib: cancer stem cell viability inhibitors, primary screen, luminescence; inhibition, % at 7.5 µM; cancer stem cell-like cells viability; AID 2717, 2010; hit rate 1.1% among 300,000;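 active = mean at 75% or more and at least half the replicates too; inconclusive = mean and replicates disagree; tested in HMLE shEcad cells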;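 also: 0% = median of negative and 100% = median of positive control wells; the first replicate is given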
HIV Env fusion: inhibitors of HIV-1 Env-driven cell-cell fusion, primary screen, HeLa-JRFL effector, CEM21 target cells, luciferase | inhibition, % at 12.3 µM | hit rate 1.1% among 360,000;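 active = mean replicate inhibition score of at least 50 and every replicate individually at or above 50; inconclusive = only one of the two criteria met; inactive = mean below 50 and not all replicates reaching 50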;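 also: 0% = plate neutral controls and 100% = maraviroc near 300 nM; one replicate is shown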
MT1-MMP act inh: blockers of MT1-MMP proenzyme processing, primary screen, HT1080 RFP-PRO-GFP cells, GFP/RFP fluorescence; GFP/RFP ratio fluorescence, overnight; percent of plate control window, DMSO zero; GFP/RFP ratio change, % at 20 µM; Matrix metalloproteinase-14 (Homo sapiens), P50281; hit rate 0.061% among 360,000; AID 651647, 2012;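 active = GFP/RFP ratio change of at least 30% with cell ATP level not reduced by more than half and red fluorescence within 50% of control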; also: strong numbers were not always called active
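Compound: 20 µM single dose, 1% DMSO / System: HT1080 RFP-PRO-GFP cells / Controls: DMSO and RFP-L50D-GFP cell wells / Read-out basis: GFP/RFP fluorescence ratio / Schedule: overnight compound exposure at 37 °C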
eIF4H FP inh retest: recorded beside eIF4H FP inh, whose call it bears; inhibition, %; compound at 20 µM; confirmation average;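 mean of two retest wells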
PABP polyA inh retest: recorded beside PABP polyA inh, whose call it bears; inhibition, %; compound at 20 µM; confirmation repeats;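 mean of two retest wells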
MT1-MMP act inh RFP: also measured in MT1-MMP act inh; calls as there; RFP signal change, %; measured here: RFP expression control read;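 0 = vehicle wells; hits needed this value within 50% of zero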
Numbers without * were called inactive; i = inactive; ? = inconclusive; · = not tested or not shown; & = joins results of further samples. Not all compounds are listed. The share of hits here may be higher or lower than overall.

SMILES	eIF4H FP inh	PABP polyA inh	Yeast UUG start	Rce1 inh	CSC inhib	HIV Env fusion	MT1-MMP act inh	MT1-MMP act inh RFP	others
CCC(C)Nc1nc(N)c([N+](=O)[O-])c(NCCO)n1 (configuration not stated)	-3	0	·	i	-3	-8	1	6
O=C(c1ccco1)N1CCN(c2ccc([N+](=O)[O-])cc2Cl)CC1	-6	2	·	i	-3	-23	4	-8
OCCC1CN(Cc2ccc3c(c2)CCO3)CCN1C1CCCC1 (configuration not stated)	4	-2	·	i	-6	-5	0	3
O=C(Nc1cccc(Br)c1)c1cc(S(=O)(=O)N2CCOCC2)cs1	0	-16	-6	i	4	·	4	-9
Cc1onc(C(=O)Nc2cccnc2Cl)c1[N+](=O)[O-]	72	-1	·	i	0	7	-1	-5	eIF4H FP inh retest=20;PABP polyA inh retest=18
COc1ccc(CN(C)C2c3ccccc3-c3ccccc32)cc1	-8	3	·	i	·	5	2	-1
Cc1cccc(-c2noc(-c3ccoc3C)n2)c1	-7	-4	·	·	-10	-35	0	5
COc1ccccc1-c1ccc(/C=C2\C=CC(=O)O2)o1	?	?	4	i	4	0	-16	1
CCN(CC(=O)NCc1ccccn1)S(=O)(=O)c1ccc(OC)cc1	0	-2	-19	i	-13	3	-2	-1
COc1ccc(CN2C(=O)c3cccnc3C2=O)cc1S(=O)(=O)N1CCOc2ccccc21	1	7	6	i	6	-31	-1	-1
CCN(CC)C(=O)CC(c1ccc(OC)cc1)c1c(OC)cc(OC)c2ccc(=O)oc12 (configuration not stated)	27	14	-9	i	-12	-1	6	5
O=S(=O)(N/N=C/c1cccc(OC2CSC2)c1)c1ccccc1	3	-8	-6	i	-4	·	-5	1
O=C(CSc1nc2ccccc2c(=O)n1CCCO)Nc1ccc2c(c1)OCCO2	·	·	-5	·	·	2	-1	1
COc1cc2c(cc1OC)C(C)N(S(=O)(=O)c1cn(C)cn1)CC2 (configuration not stated)	0	-8	-20	i	-4	-2	-1	0
Cc1ccc(NC(=O)N/C=C/c2ccco2)cc1C	34	11	-13	i	2	-82	-5	3
CCCCNCc1ccc(SC)cc1	1	5	-26	i	2	21	-2	-1
O=C(Nc1nc2ccc([N+](=O)[O-])cc2s1)c1ccncc1	-2	-1	·	·	33	-24	0	-29
COc1cc(CC(=O)OCC(=O)N2CCCCC2C)cc(OC)c1OC (configuration not stated)	-9	11	-2	i	-13	-12	2	1
Cc1nc(C)c(NC(=O)OC(C)C)cc1NC(=O)OC(C)C	-6	47	·	i	-28	-24	2	4
N#Cc1c(N)n[nH]c1-c1cc2c([nH]1)CCCC2	5	6	-24	i	-9	-34	-7	-2
CC(=O)Nc1cccc(OCC(=O)NCCC2=CCCCC2)c1	-7	-4	4	i	1	0	2	4
Cn1cc(Cl)cc(C(=O)Nc2ccccc2)c1=O	-6	-7	-12	i	6	-36	-3	3
Cc1ccc(S(=O)(=O)N2c3ccccc3OCC2c2ccccc2)cc1 (configuration not stated)	5	3	-13	i	63	20	-5	-14
COC(=O)c1ccc(C(=O)OC)c(NC(=S)N2CCN(C)CC2)c1	2	-1	-16	i	-8	-15	-2	-1
CSCCC(NC(=O)COc1ccccc1)C(=O)NCCOc1ccc(C)cc1 (configuration not stated)	2	-6	-6	i	-8	5	3	2

Arranged by SMILES length (falling): part of the list above
SMILES	eIF4H FP inh	PABP polyA inh	Yeast UUG start	Rce1 inh	CSC inhib	HIV Env fusion	MT1-MMP act inh	MT1-MMP act inh RFP	others
Cc1ccc(S(=O)(=O)N2c3ccccc3OCC2c2ccccc2)cc1 (configuration not stated)	5	3	-13	i	63	20	-5	-14
O=S(=O)(N/N=C/c1cccc(OC2CSC2)c1)c1ccccc1	3	-8	-6	i	-4	·	-5	1
N#Cc1c(N)n[nH]c1-c1cc2c([nH]1)CCCC2	5	6	-24	i	-9	-34	-7	-2

The list continues:
SMILES	eIF4H FP inh	PABP polyA inh	Yeast UUG start	Rce1 inh	CSC inhib	HIV Env fusion	MT1-MMP act inh	MT1-MMP act inh RFP	others
O=C(CCCc1ccccc1)NCc1ccc2c(c1)OCO2	-9	3	-35	i	-9	-41	3	-1
O=C(NC1CCCCC1)C(c1ccccc1F)N(Cc1ccco1)C(=O)c1ccccn1 (configuration not stated)	-8	-2	-5	i	-4	4	-1	2
O=C(CSc1nc2nccnc2c(=O)n1Cc1cccs1)Nc1ccccc1	·	·	-8	i	-6	-2	2	2
O=C(NCC(O)c1ccccc1)c1ccccc1 (configuration not stated)	-8	-11	-24	i	9	-27	0	1
c1ccc(-c2nc3c(ccc4ccccc43)[nH]2)nc1	10	-6	·	i	·	·	3	1
CC1CC(Nc2ccccc2)=CC(=O)O1 (configuration not stated)	-1	-3	·	i	-1	·	-2	0
Cc1oc(-c2cccs2)nc1CN1CC[C@@](O)(c2ccccc2)[C@H]2CCCC[C@@H]21	-7	0	-11	·	6	-6	-1	3
CC(=O)Nc1ccc(OC(=O)Cc2ccc(Cl)cc2)cc1	-1	-11	-9	i	-3	-6	4	4
COc1ccc(Cl)cc1C(=O)C1CCCN(Cc2cnc(N3CCOCC3)s2)C1 (configuration not stated)	-7	-7	·	i	-7	13	3	-2
O=[N+]([O-])c1ccc(SCCc2ccncc2)cc1	-5&-12	7&17	-27&-5	i	18&28	1&-15	0&-1	-8&-3
O=[N+]([O-])c1ccc(/C=N/Nc2nc(N3CCCCC3)nc(N3CCCCC3)n2)o1	25	36	-15	i	-11	-14	-6	-4
Cc1ccccc1NC(=O)C(=O)NNC(=O)COc1ccc2ccccc2c1	17	-7	-13	i	·	-5	2	4
O=C(C1CCCN(S(=O)(=O)c2cccc3nsnc23)C1)N1CC=C(c2ccccc2)CC1 (configuration not stated)	-9	-6	-19	·	·	·	-11	-28
O=c1c2ccccc2nc(/C=C/c2c[nH]c3ccccc23)n1-c1ccc([N+](=O)[O-])cc1	-10	5	·	i	0	-3	1	0
COc1ccc(Br)cc1/C=N/NC(=O)c1ccco1	6	-16	·	i	-17	6	2	1
COc1ccc(C)cc1NC(=O)CC(NC(C)=O)c1ccccc1 (configuration not stated)	22	2	·	i	-1	-10	-3	2
COc1ccc(C(CC(=O)c2ccc(C)cc2)C(C#N)C#N)cc1OC (configuration not stated)	7	10	·	i	73	·	-8	-15
COC(=O)c1c(C)nn(-c2ccccc2)c1-n1cccc1	-5	3	·	i	-9	6	6	8
CCOC(=O)c1cc(-c2ccccc2)sc1NC(=O)COC	-3	8	·	i	-1	3	2	-1
O=C(COC(=O)[C@@H]1CCCN1S(=O)(=O)c1ccccc1F)Nc1ccc(OC(F)F)cc1	1	3	6	i	-11	-3	2	1
C[C@@H]1CN([C@H](C)CO)C(=O)c2cc(NC(=O)NC3CCCCC3)ccc2O[C@H]1CN(C)S(C)(=O)=O	·	·	-10&2	·	-5	-11	-2	2
CC(=O)Nc1ccc2c(c1)CCCC2	-10	-2	·	i	-2	0	0	2
CCN(CC)c1ccc(NC(=O)CN2CCN(c3ccc(F)cc3)CC2)cc1	11	-3	-46	i	·	-12	-2	-1
CC(C)OC(=O)CSc1ncnc2c1cnn2-c1ccccc1	2	5	-24	i	-10	·	1	-3
CCOc1ccc(C(=O)OCC(=O)Nc2cccc(S(=O)(=O)N3CCCC3)c2)cc1	·	·	-10	·	·	20	-2	-2

Molecules shown so far that have a furan ring, fused or not, in the order listed:
SMILES	eIF4H FP inh	PABP polyA inh	Yeast UUG start	Rce1 inh	CSC inhib	HIV Env fusion	MT1-MMP act inh	MT1-MMP act inh RFP	others
O=C(c1ccco1)N1CCN(c2ccc([N+](=O)[O-])cc2Cl)CC1	-6	2	·	i	-3	-23	4	-8
Cc1cccc(-c2noc(-c3ccoc3C)n2)c1	-7	-4	·	·	-10	-35	0	5
COc1ccccc1-c1ccc(/C=C2\C=CC(=O)O2)o1	?	?	4	i	4	0	-16	1
Cc1ccc(NC(=O)N/C=C/c2ccco2)cc1C	34	11	-13	i	2	-82	-5	3
O=C(NC1CCCCC1)C(c1ccccc1F)N(Cc1ccco1)C(=O)c1ccccn1 (configuration not stated)	-8	-2	-5	i	-4	4	-1	2
O=[N+]([O-])c1ccc(/C=N/Nc2nc(N3CCCCC3)nc(N3CCCCC3)n2)o1	25	36	-15	i	-11	-14	-6	-4
COc1ccc(Br)cc1/C=N/NC(=O)c1ccco1	6	-16	·	i	-17	6	2	1

Further records
SMILES	eIF4H FP inh	PABP polyA inh	Yeast UUG start	Rce1 inh	CSC inhib	HIV Env fusion	MT1-MMP act inh	MT1-MMP act inh RFP	others
Fc1ccc(C2=CC(c3ccco3)n3ncnc3N2)cc1 (configuration not stated)	?	-1	-25	i	7	·	-83	2
CCN(CC)CCCNC(=O)c1cc(-c2ccc(Cl)c(Cl)c2)on1	-6	-8	-9	i	74	·	-1	-2
CCN(CCCNC(=O)CNC(=O)Cn1cnc2ccccc2c1=O)c1cccc(C)c1	-2	-9	-4	i	1	·	4	4
O=C(CSc1ncc(-c2ccc(F)cc2)n1Cc1ccco1)Nc1nccs1	0	0	5	i	21	-84	3	-3
Cc1cc(Cl)cc(C)c1OCCCCN1CCOCC1	-8	-2	-4	i	39	27	7	7
CCc1cc(-c2nnn(CCC3COCCO3)c2CC)ccc1-c1cn(CCc2c[nH]c3ccccc23)nn1 (configuration not stated)	·	·	6	·	·	7	-3	-20
O=C(c1cc2cc([N+](=O)[O-])ccc2s1)N1CCCCC1	-5	26	·	i	-6	-9	0	-1
COc1cc(NCCCCC(C)N)c2nccc(C)c2c1 (configuration not stated)	·	·	-13	·	·	4	-13	-8
CN(C(=O)CSc1nnc(NC2CCCCC2)s1)C1CCS(=O)(=O)C1 (configuration not stated)	-5	-8	-21	i	-5	-134	4	6
CC1(C)CC2CC(C)(CN2C(=O)COC(=O)c2ccc(Cl)c(N)c2)C1 (configuration not stated)	-8	2	0	i	-11	·	4	3
CCC(=O)c1c[nH]c(C(=O)NCCCn2ccnc2)c1	-9	24	-10	i	·	·	3	7
Cc1cc(C)cc(N(C(C)C(=O)NC2CCCC2)S(C)(=O)=O)c1 (configuration not stated)	4	-3	-6	i	9	-9	-1	1
CC(C)n1cc(CN2CCC(n3nccc3NC(=O)CCCc3ccccc3)CC2)cn1	0	3	-10	i	-20	-43	-1	3
CC1CCCC/C1=N\NC(=S)Nc1cccnc1 (configuration not stated)	3	-7	·	i	-11	1	2	4

Already shown: an excerpt of the list.
SMILES	eIF4H FP inh	PABP polyA inh	Yeast UUG start	Rce1 inh	CSC inhib	HIV Env fusion	MT1-MMP act inh	MT1-MMP act inh RFP	others
CCC(=O)c1c[nH]c(C(=O)NCCCn2ccnc2)c1	-9	24	-10	i	·	·	3	7
Cc1cc(C)cc(N(C(C)C(=O)NC2CCCC2)S(C)(=O)=O)c1 (configuration not stated)	4	-3	-6	i	9	-9	-1	1
CC(C)n1cc(CN2CCC(n3nccc3NC(=O)CCCc3ccccc3)CC2)cn1	0	3	-10	i	-20	-43	-1	3
CC1CCCC/C1=N\NC(=S)Nc1cccnc1 (configuration not stated)	3	-7	·	i	-11	1	2	4

Screening data deposited in PubChem BioAssay by several laboratories.
